# NS1 inh: influenza NS1 inhibition | S. cerevisiae slowed by influenza A NS1, growth recovery by OD600 | Potency, µM (highest dose often 46.1 µM), inactives show top-dose activity, positive = more growth | actives 0.4% (n = 270,000); note: actives are rising curves; nearly all actives have a fitted effect of over 50% in size
#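 In this qHTS, NS1 from influenza A is expressed in budding yeast, where it slows growth. Cells are switched from glucose to 2% galactose medium (pH 6.0, -URA), treated with compound, and growth recovery is read at OD600.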
# LASV entry inh: inhibitors of Lassa virus binding or cell entry. Lassa virus pseudotype entry inhibition, cell reporter; control for the full effect not named in the record. Potency, µM (series often up to 37.9 µM), inactives show at the top dose activity change, negative = inhibition, hits mostly inhibitors. actives 1.2% (n = 300,000). AID 540256; active means well fitted inhibition curve with a large enough effect; inconclusive means small, poorly fitted or top-dose-only effect, or effect the other way; inactive means flat fitted curve, though single readings scatter; tested in HEK293 cells; note: % is set by controls: 0 for no effect and ±100 for the full control effect; nearly all actives have a fitted effect of over 50% in size; luciferase read-out
# SARS PLP yeast: SARS-CoV PLP inhibition in yeast | S. cerevisiae expressing SARS-CoV PLpro, growth rescue; control for the full effect not named in the record | AID 485353 | actives 0.19% (n = 330,000) | Potency, µM (doses to about 32.9 µM), for inactives: at the highest dose activity, positive = growth rescue; note: 0% is about no effect; nearly all actives have a fitted effect of over 55% in size; growth read by luminescence after 48 h
# Marburg entry inh: Marburg virus entry inhibition; Marburg virus pseudotyped entry inhibition, cell reporter; control for the full effect not named in the record; about a third of the inactives were read at about 46 µM; Potency, µM (top dose mostly 37.8 µM), without a hit: at the highest dose activity change, negative = inhibition, most hits filed as inhibitors; actives 1.8% (n = 300,000); AID 540276; active = well fitted inhibition curve with a large enough effect; inconclusive = small, poorly fitted or top-dose-only effect, or effect the other way; inactive = flat fitted curve, though single readings scatter; tested in HEK293 cells; about a fifth of its hits are not listed in these tables; note: % is set by controls: 0 for no effect and ±100 for the full control effect; luciferase read-out
# Cruzain inh Det: blocks cruzain activity in presence of Triton detergent | P25779 | purified cruzain, Z-FR-AMC fluorescence, 0.01% Triton | Potency, µM, inactives show max response, negative = inhibition, hits mostly inhibitors | actives 0.43% (n = 200,000) | AID 1478; active = well fitted curve in the direction sought with a large enough effect; inconclusive = small, poorly fitted or top-dose-only effect, or another doubt; inactive = no such curve, though single readings can be large; an effect the other way counts as inactive or inconclusive;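 note: plate controls were neutral wells for no effect and buffer without enzyme for full effect; nearly all actives have a fitted effect of over 40% in size; top concentration of the series not given in the record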
# Target sequence (P25779 123-467 limits assumed): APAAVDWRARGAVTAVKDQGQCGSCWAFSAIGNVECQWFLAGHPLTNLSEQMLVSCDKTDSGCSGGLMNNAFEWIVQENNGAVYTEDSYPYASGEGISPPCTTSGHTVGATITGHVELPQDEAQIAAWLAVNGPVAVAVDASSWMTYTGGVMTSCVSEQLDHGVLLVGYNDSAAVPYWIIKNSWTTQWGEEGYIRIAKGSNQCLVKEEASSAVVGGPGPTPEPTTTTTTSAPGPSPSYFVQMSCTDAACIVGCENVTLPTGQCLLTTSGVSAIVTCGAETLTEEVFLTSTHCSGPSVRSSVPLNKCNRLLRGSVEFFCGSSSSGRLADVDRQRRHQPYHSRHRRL
#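 Detergent-containing arm of a paired screen for aggregation-based inhibition: 0.01% Triton X-100 present. Cruzain at 1.5 nM cleaved 2 uM Z-FR-AMC at pH 5.5 with 5 mM DTT; AMC fluorescence gain over 60 s measured activity.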
# RE007 growth inh: less growth of the S. pombe RE007 Vpr strain. S. pombe RE007 Vpr strain, BacTiter-Glo ATP luminescence, 24 h; control for the full effect not named in the record. Potency, µM (top dose mostly 92.2 µM), without a hit: top-dose activity change, negative = less growth. actives 0.21% (n = 360,000); active = well fitted falling curve with a large enough effect; inconclusive = small, poorly fitted or top-dose-only effect; inactive = no such curve, though single readings can be large or run the other way;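 note: % is set by controls: 0 for no effect and ±100 for the full control effect; nearly all actives have a fitted effect of over 50% in size; the assay follows cell death caused by Vpr and the record does not say whether a fall means rescue or toxicity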
#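 Fission yeast strain RE007, carrying one chromosomally integrated HIV-1 vpr copy, was seeded at OD 0.01 in PMG+AL medium with 23 nL pinned compound. After 24 h at 30 °C and 99% humidity, viability was read by BacTiter-Glo luminescence.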
# Cruzain noTriton: cruzain (T. cruzi) inhibition without detergent; P25779; purified cruzain, Z-FR-AMC fluorescence, no detergent; Potency, µM, without a hit: max response, negative = inhibition, most hits filed as inhibitors; actives 2.3% (n = 200,000); active = well fitted curve in the direction sought with a large enough effect; inconclusive = small, poorly fitted or top-dose-only effect, or another doubt; inactive = no such curve, though single readings can be large; an effect the other way counts as inactive or inconclusive;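 note: plate controls were enzyme without inhibitor for no effect and buffer without enzyme for full effect; nearly all actives have a fitted effect of over 40% in size; top concentration of the series not given in the record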
#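 Detergent-free condition (0.00005% Triton X-100) in acetate buffer pH 5.5 with DTT. 1.5 nM enzyme and compound were pre-mixed 15 min, then 2 uM Z-FR-AMC substrate added; reaction progress from fluorescence change between first and third reads (60 s).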
# 2A StopGo: FMDV 2A StopGo reporter, luciferase signal; human cells with a luciferase reporter of 2A StopGo recoding; control for the full effect not named in the record; Potency, µM (top dose mostly 57.9 µM), for inactives: top-dose signal change, negative = less light; actives 1.2% (n = 410,000); AID 1159524; active = well fitted falling curve with a large enough effect; inconclusive = small, poorly fitted or top-dose-only effect; inactive = no such curve, though single readings can be large or run the other way; tested in HEK293T cells; note: % is set by controls: 0 for no effect and ±100 for the full control effect; nearly all actives have a fitted effect of over 45% in size; luciferase light after 4 h
# Numbers without * were called inactive; ? = inconclusive; . = no result given; & = joins results of further samples; [ ] = another dose, or the depositor's remark. Unless noted, calls come from the whole dose curve; as a rule, active means well fitted rising curve with a large enough effect; inconclusive means small, poorly fitted or top-dose-only effect; inactive means no such curve, though single readings can be large or run the other way. Potency is the fitted concentration of half-maximal effect.
SMILES,NS1 inh,LASV entry inh,SARS PLP yeast,Marburg entry inh,Cruzain inh Det,RE007 growth inh,Cruzain noTriton,2A StopGo
O=C(/C=C/c1ccccc1Cl)NC1CCS(=O)(=O)C1 (stereo not given),2.0%,9.5%,-0.2%,?,.,4.4%,.,-13.5%
CCc1ccccc1NC(=O)CNC(=O)c1ccccc1OCc1c(C)noc1C,.,0.6%,-1.3%,1.2%,.,-6.6%,.,-16.7%
c1ccc(OCCCCn2cnc3ccccc32)cc1,-20.9%,-11.7%,-0.6%,?,-3.7%,-29.9%,-0.4%,0.0%
CCOC(=O)C(NC(C)=O)C(O)c1ccc([N+](=O)[O-])cc1 (stereo not given),1.3%,-1.1%[46.1 µM],0.7%,1.2%[46.1 µM],.,-14.5%,.,29.1%
O=C(C(=O)N1CCOCC1)c1cn(CC(=O)N2CCCCC2)c2ccccc12,10.9%,12.7%,0.2%,16.1%,.,-11.0%,.,-24.1%
N#CNC(=Nc1ccc(Cl)cc1)Oc1ccccc1,-6.9%,-1.7%,0.8%,1.4%&1.4%[46.1 µM],.,3.2%,.,-20.6%
O=C(C(=C1N(Cc2ccc(Cl)nc2)CCN1Cc1ccc(Cl)nc1)[N+](=O)[O-])C(Cl)Cl,-6.0%,.,0.8%,.,.,17.4%,.,-3.1%
Cc1ccccc1OCCC(=O)OCC(=O)NCCNC(=O)COC(=O)CCOc1ccccc1C,.,9.7%,-0.8%,3.0%[46.1 µM],.,-11.8%,.,-10.3%
CC(Oc1ccc(Br)cc1)C(=O)N1CCC(C(N)=O)CC1 (stereo not given),.,3.5%[46.1 µM],1.9%,1.4%[46.1 µM],.,2.7%,.,-9.4%
CCn1c(CC(=O)Nc2ccc(C)c(Cl)c2)nnc1SCC(=O)Nc1nc(C)cs1,2.4%,-0.9%,-3.0%,-17.4%,8.9%,2.1%,?,4.8%
O=C(NCC(c1ccco1)N1CCc2ccccc2C1)c1cccc(F)c1 (stereo not given),.,4.2%,16.4%,?,.,8.3%,.,-17.1%
CN1CCN(C(=O)C2CCN(S(=O)(=O)c3ccc4c(c3)oc(=O)n4C)CC2)CC1,3.0%,4.5%,4.1%,0.0%,1.4%,-11.6%,-17.3%,-25.9%
CCOC(=O)COn1c(-n2nc(C)cc2C)nc2ccccc2c1=O,4.5%,9.2%,-0.1%,3.8%,.,-4.5%,.,25.7%
CC(=O)c1ccc(NS(=O)(=O)c2ccc3c(c2)NC(=O)CCS3)cc1,.,13.8%[46.1 µM],.,.,-5.0%,.,-9.2%,15.9%
Cc1cccc(Nc2nc(-c3ccc(O)c(O)c3)cs2)n1,24.6%,-19.4%[46.1 µM],-6.3%,?,.,-1.8%,.,14.0%
CC1CCCCC1NC(=O)C1CCN(S(=O)(=O)N2CCCCCC2)CC1 (stereo not given),-2.0%,-3.7%,-0.1%,0.0%,-2.4%,5.1%,-12.7%,-25.0%
Cc1cc(S(=O)(=O)Nc2cccc([N+](=O)[O-])c2)c(C)s1,-5.2%,.,-0.6%,.,.,-10.4%,.,0.0%
COc1ccc(-c2cc(-c3ccccc3)nc(SCC(=O)Nc3ccccc3F)c2C#N)cc1,.,0.1%[46.1 µM],.,16.1%[46.1 µM],0.8%,.,-6.4%,0.0%
COc1ccc(S(=O)(=O)N2CCC(C(=O)N[C@@H](C)C(=O)NC3CCCC3)CC2)cc1,-0.1%,.,2.3%,.,.,5.5%,.,-12.6%
CN1C(=O)/C(=C/c2ccc(O)c([N+](=O)[O-])c2)NC1=S,-2.3%,-1.2%[46.1 µM],-0.4%,3.3%[46.1 µM],.,-7.9%,.,-8.5%
C=C(C)Cn1c(SCC(=O)Nc2cccc(Cl)c2)nc2sc3c(c2c1=O)CCCC3,.,12.0%[46.1 µM],.,15.3%[46.1 µM],-2.5%,.,?,11.9%
c1ccc(CCCNc2ncnc3nc[nH]c23)cc1,-84.7%,2.8%,-6.5%,7.0%,1.8%,4.5%,0.9%,-14.6%
COc1ccc(NC(=O)CCCc2nnc3n(C(C)C)c(=O)c4sccc4n23)cc1Cl,.,27.6%[46.1 µM],.,.,-1.4%,.,8.7%,-18.6%
Cc1ccc(S(=O)c2snnc2C)cc1 (stereo not given),2.1%,-13.9%[46.1 µM],-1.6%,?,.,6.8%,.,-2.7%
Cc1cccc(OCc2nnc(SCC(=O)NCCc3ccccc3)o2)c1,0.7%,12.4%,6.1%,1.9%,6.6%,-3.9%,-5.0%,-5.3%
O=C(Oc1ccc(N2C(=O)CCC2=O)cc1)c1ccccc1Cl,-8.5%,7.4%,18.0%,6.2%,0.0%,16.9%,10.1%,-12.9%
S=C(NCc1ccccc1)N1CCN(C2CCCCC2)CC1,2.4%,.,-4.1%,.,.,-21.1%,.,-9.7%
Cc1cc(C)c(S(=O)(=O)N2CCN(C(=O)c3cc4ccccc4o3)CC2)c(C)c1,.,11.6%,-2.0%,16.8%,.,20.0%,.,?
O=C(Nc1cc(Cl)ccc1Cl)C1CC(=O)N(c2ccccc2)C1 (stereo not given),8.2%,-5.8%,0.2%,-5.9%[46.1 µM],.,3.8%,.,-10.2%
COCCCNC(=O)/C(=C\c1cccn1C)NC(=O)c1cccs1,11.1%,-3.4%,11.5%,7.8%,-10.2%,-14.7%,-2.6%,3.1%
CCSc1nc2n(n1)C(c1ccc(C(=O)O)cc1)C(C(=O)Nc1ccccc1C)=C(C)N2 (stereo not given),.,-7.1%[46.1 µM],.,.,1.3%,.,8.1%,-0.9%
CCCn1c(SCC(=O)NC)nc2sc3c(c2c1=O)CCC3,-3.0%,-6.9%,-0.8%,9.7%[46.1 µM],.,-7.8%,.,-5.3%
O=C(c1ccc(Cl)c(F)c1F)N1CCOCC1,6.2%,?,1.0%,24.6%,1.8%,8.2%,-28.2%,25.6%
C[C@]12CCC3C(CCC4=C/C(=N/OCC(=O)NC(CCC(=O)O)C(=O)O)CC[C@@]43C)C1CCC2O (stereo not given in full),4.9%,25.6%[46.1 µM],13.5%,0.3%[46.1 µM],.,-4.8%,.,2.3%
C[C@@H](CN1C2=NC[C@H](Cc3ccccc3)N2C[C@H]1Cc1ccc(O)cc1)NC(=O)CCC1CCCCC1,1.2%,.,0.1%,.,.,-12.0%,.,-24.8%
Cc1ccc(N/C=C2\CCCCC2=O)nc1,0.7%,.,0.3%,7.7%[46.1 µM],.,-14.6%,.,45.3%[activator]
Nc1c(C(=O)O)nnn1Cc1ccccc1,1.5%,-3.1%,0.1%,18.8%,-1.4%,0.3%,-2.4%,5.4%
C/C(=N\NC(=S)NCCc1ccccc1)c1cccc(Br)c1,2.6%,-18.6%,-0.3%,?,.,-9.3%,.,13.4%
O=C(CO/N=C/c1ccccc1O)N1CCc2ccccc21,15.6%,5.9%,8.5%,19.3%,-1.6%,3.5%,-1.1%,13.1%
CCOC(=O)c1c(/N=C/N(C)C)sc2c1CCC2,10.2%,-13.8%,-2.8%,?,-5.9%,.,-1.2%,0.0%
c1ccc(C2=NC(c3ccccc3)N=C(c3ccccc3)N2)cc1,-3.1%,-22.3%,10.6%,?,-0.7%,4.5%,9.4%,-15.1%
N#CC1(C#N)CC(C=O)=C(N)C1(C#N)CC(=O)c1ccc(F)cc1 (stereo not given),14.1%,17.2%,-2.5%,?,-1.2%,-3.7%,-3.1%,-23.6%
Cc1ccc(OCC(=O)Nc2ccc(F)cc2)cc1,-3.3%,12.4%,-3.0%,4.7%,2.5%,16.5%,-6.3%,4.5%
O=[N+]([O-])c1ccccc1CNCCc1c[nH]c2ccccc12,-3.2%,1.5%,-4.7%,-7.0%,.,-3.9%,.,8.2%
CCOC(=O)c1nccnc1C(=O)Nc1ccc(C(F)(F)F)cc1,.,4.2%,1.6%,0.2%[46.1 µM],.,3.1%,.,-12.9%
COc1ccc(/C(N)=N/OC(=O)Oc2ccccc2)cc1,-3.3%,11.6%,-4.3%,-1.3%,-9.4%,7.8%,-10.9%,7.9%
CCOC(=O)c1ccc(N(CC2CO2)S(=O)(=O)c2ccc(C)cc2)cc1 (stereo not given),.,?,.,-12.6%[46.1 µM],.,1.1%,.,1.0%
CCN(CC)C(=O)C1CCN(S(=O)(=O)c2ccc3c(c2)CCCN3C(=O)C2CCC2)CC1,-3.6%,?,-2.0%,-5.6%[46.1 µM],.,6.9%,.,0.0%
CCOc1cc(C(=O)OCc2cc(=O)n3nc(C4CC4)sc3n2)cc(OCC)c1OCC,.,?,.,.,-1.1%,.,-0.7%,-27.5%
CCOc1ccccc1Nc1nc(N)nc(CSc2nncn2C)n1,14.0%,2.4%,0.9%,0.8%,3.8%,5.2%,-0.1%,16.6%
O=C(COC(=O)COc1ccc(Br)cc1)NCC1CCCO1 (stereo not given),.,22.5%,-5.3%,?,.,4.8%,.,-16.2%
Cc1ccc(S(=O)(=O)N2CCC(C(=O)OCC(=O)NCCc3ccccc3)CC2)cc1C,.,2.3%,-5.5%,2.3%,.,-5.0%,.,-0.2%
COC(=O)c1ccc(CSc2nnc(NC(C)C)s2)o1,.,?,5.7%,2.4%[46.1 µM],.,10.7%,.,4.9%
CCOP(=O)(CC(C(C)=O)C(O)c1ccccc1)OCC (stereo not given),4.7%,-0.3%,-9.7%,4.8%&4.8%,5.0%,21.6%,-4.8%,-5.8%
O=C(c1cccc(S(=O)(=O)N2CCOCC2)c1)N(Cc1ccc(F)cc1)Cc1ccco1,1.1%,.,0.6%,.,.,14.5%,.,-16.2%
CCc1ccc(CNC(=O)c2cnc3c(C)cccn3c2=O)cc1,.,?,.,.,-5.8%,.,?,13.8%
CCOCCCNC(=O)C(c1ccc(C)cc1)N1CCOCC1 (stereo not given),8.6%,.,-2.5%,.,1.9%,4.5%,-1.7%,-14.3%
O=C1c2cccnc2C(=O)N1Cc1ccc(S(=O)(=O)N2CCOc3ccccc32)cc1,13.2%,-18.4%[46.1 µM],?,-5.4%[46.1 µM],.,-0.2%,.,-11.9%

# Screening data deposited in PubChem BioAssay by National Center for Advancing Translational Sciences (NCATS).
